Bioassay records deposited in PubChem by Broad Institute.
MLL AF4-AF9 inh = blocks AF4 peptide binding to human AF9 | AID 651704 | actives 0.47% (n = 350,000) | inhibition, % at 10 µM | AlphaScreen, biotin-AF4 peptide binding to FLAG-AF9 | P42568;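 active = every replicate reaching a set inhibition limit, whatever the replicate mean, cut at about 25% in these data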;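 note: 0% = plate neutral control median and 100% = total signal loss; the record names both 10 and 1 µM as test concentration; the first replicate is given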
Target sequence (P42568 whole entry, looked up): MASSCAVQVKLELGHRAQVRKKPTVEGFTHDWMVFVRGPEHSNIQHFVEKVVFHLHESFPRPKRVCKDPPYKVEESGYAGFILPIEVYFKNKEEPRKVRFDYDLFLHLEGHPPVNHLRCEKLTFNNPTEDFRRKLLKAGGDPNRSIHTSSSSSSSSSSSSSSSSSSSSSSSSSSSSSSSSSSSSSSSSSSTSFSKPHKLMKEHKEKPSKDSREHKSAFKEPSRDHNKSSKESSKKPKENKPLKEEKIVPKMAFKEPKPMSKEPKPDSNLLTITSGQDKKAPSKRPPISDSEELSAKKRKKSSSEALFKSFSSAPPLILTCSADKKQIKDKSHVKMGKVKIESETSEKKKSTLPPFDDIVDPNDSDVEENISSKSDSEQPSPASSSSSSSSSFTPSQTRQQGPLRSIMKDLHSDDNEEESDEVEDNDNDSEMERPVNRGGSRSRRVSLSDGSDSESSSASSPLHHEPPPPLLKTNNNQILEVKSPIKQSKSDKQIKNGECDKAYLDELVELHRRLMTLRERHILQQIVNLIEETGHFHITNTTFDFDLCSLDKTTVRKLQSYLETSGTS
FGF22 binding = binders of recombinant human FGF22 by thermal shift; Q9HCT0; SYPRO orange fluorescence; percent of sucrose octasulfate shift, DMSO zero; calls only at 9.99 µM; actives 1.5% (n = 340,000);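 active = melting point raised past a set limit in the mean and every replicate; three in four hits are not shown here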
Target sequence (Q9HCT0 whole entry, looked up): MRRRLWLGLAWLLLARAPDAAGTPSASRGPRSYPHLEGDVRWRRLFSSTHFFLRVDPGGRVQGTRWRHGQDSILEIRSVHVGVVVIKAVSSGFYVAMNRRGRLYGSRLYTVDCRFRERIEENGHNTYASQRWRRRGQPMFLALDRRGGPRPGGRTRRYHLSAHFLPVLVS
* = called active by the depositor; i = inactive; + = active, no number.

Screens in order – MLL AF4-AF9 inh, FGF22 binding
> Cc1noc(C)c1S(=O)(=O)Nc1ccc2c(c1)C(=O)N([C@@H](C)CO)C[C@H](C)[C@H](CN(C)Cc1ccc(C(=O)O)cc1)OCCCC[C@H](C)O2
  -14, +
> C[C@@H]1CCCCO[C@H](CN(C)C(=O)NC2CCCCC2)[C@@H](C)CN([C@@H](C)CO)C(=O)c2cc(NS(=O)(=O)c3ccccc3)ccc2O1
  1.9, i
> C[C@@H]1CN([C@H](C)CO)C(=O)Cc2cc(NS(=O)(=O)c3cn(C)cn3)ccc2O[C@@H]1CN(C)S(=O)(=O)c1cn(C)cn1
  1.2, i
> OC[C@@H]1CC[C@@H]2O[C@H](CCc3ccc(-c4ccc(F)cc4)cc3)[C@H](n3cc(C4CC4)nn3)C[C@@H]2O1
  2.5, i
> Cc1ccc(S(=O)(=O)N2CC[C@@H]3[C@@H](CO)Nc4ccc(-c5ccccc5F)cc4[C@@H]32)cc1
  2.5, i
> O=C(NC[C@H]1[C@H](c2ccccc2)[C@@H](CO)N1C(=O)Cc1cccnc1)C1CC1
  -2.2, i
> C[C@@H]1CN([C@H](C)CO)C(=O)c2cc(C#CCN(C)C)cnc2O[C@@H]1CN(C)C(=O)Cc1cccnc1
  -2.5, i
> C/C=C/c1ccc([C@H]2[C@H]3CN(C(=O)Nc4cc(F)ccc4F)CCCCN3[C@H]2CO)cc1
  6.9, i
> CC(C)NC(=O)Nc1ccc2c(c1)CC(=O)N([C@H](C)CO)C[C@H](C)[C@H](CN(C)Cc1ccncc1)O2
  -1.4, i
> O=C(C[C@H]1CC[C@H](NS(=O)(=O)c2ccc(F)cc2)[C@@H](CO)O1)NCCN1CCCCC1
  0.5, i
> CCC(=O)N1CCCCN2[C@@H](CO)[C@H](c3ccc(C#Cc4ccccc4)cc3)[C@@H]2C1
  1.1, i
> Cc1noc(C)c1NC(=O)Nc1ccc2c(c1)C(=O)N([C@H](C)CO)C[C@@H](C)[C@@H](CN(C)CC1CCCCC1)OCCCC[C@@H](C)O2
  2.6, i
> COc1ccc(NC(=O)N(C)C[C@H]2Oc3ccc(NS(=O)(=O)c4ccc(Cl)cc4)cc3C(=O)N([C@H](C)CO)C[C@@H]2C)cc1
  -1.6, i
> CCNC(=O)C[C@H]1CC[C@@H](NC(=O)C2CCOCC2)[C@@H](CO)O1
  1.3, i
> COc1cc2c(cc1O)C(c1cccs1)N(Cc1sc3ccccc3c1Cl)CC2 (stereo not given)
  2.9, i
> C[C@H](CO)N1C[C@H](C)[C@H](CN(C)Cc2ccncc2)OCCCC[C@H](C)Oc2ccc(NC(=O)Nc3ccc4c(c3)OCO4)cc2C1=O
  5.7, i
> O=C(Cc1ccccn1)N[C@H]1CC[C@H](CCNC(=O)c2cc(Cl)cc(Cl)c2)O[C@@H]1CO
  -1.9, i
> Cc1ccc(S(=O)(=O)Nc2cccc3c2O[C@@H](CN(C)Cc2ccc(C(F)(F)F)cc2)[C@@H](C)CN([C@@H](C)CO)C3=O)cc1
  0.2, i
> Cc1noc(C)c1S(=O)(=O)Nc1ccc2c(c1)C(=O)N([C@@H](C)CO)C[C@@H](C)[C@@H](CN(C)S(=O)(=O)c1ccccc1)OCCCC[C@@H](C)O2
  1.8, i
> CCCC(=O)Nc1ccc2c(c1)C(=O)N(C)C[C@@H](OC)[C@H](C)CN(S(=O)(=O)c1cn(C)cn1)[C@H](C)CO2
  -1.2, i
> C[C@H](CO)N1C[C@H](C)[C@H](CN(C)CC2CCOCC2)Oc2ncc(C#Cc3ccc(F)cc3)cc2C1=O
  0.2, i
> CCC(=O)Nc1ccc2c(c1)OC[C@H](C)N(Cc1ccccc1C(=O)O)C[C@@H](C)[C@@H](OC)CN(C)C2=O
  -2.0, i
> C[C@@H]1CN([C@H](C)CO)C(=O)c2cc(C3=CCCC3)cnc2O[C@H]1CN(C)C(=O)c1ccccc1
  -0.9, i
> Cc1ccc(S(=O)(=O)N(C)C[C@H]2Oc3ccc(NS(=O)(=O)c4c(C)noc4C)cc3C(=O)N([C@H](C)CO)C[C@H]2C)cc1
  -1.9, i
> C[C@H](CO)N1C[C@H](C)[C@@H](CN(C)Cc2ccccc2)Oc2ccc(NC(=O)Cc3ccccc3)cc2CC1=O
  1.2, i
> C[C@H](CO)N1C[C@H](C)[C@@H](CN(C)Cc2ccccc2)OCCCC[C@H](C)Oc2ccc(NC(=O)Nc3ccc4c(c3)OCO4)cc2C1=O
  20, i
> COCC(=O)N1CC[C@H]2[C@H](CO)Nc3ccc(C#Cc4ccccc4)cc3[C@H]21
  1.0, i
> COc1ccc(NC(=O)N(C)C[C@@H]2Oc3ccc(NC(=O)Cc4cn(C)c5ccccc45)cc3C(=O)N([C@H](C)CO)C[C@H]2C)cc1
  1.0, i
> CCNC(=O)C[C@@H]1CC[C@H]2[C@@H](COc3ccc(NC(=O)Nc4ccccc4Cl)cc3C(=O)N2C)O1
  0.1, i
> CC=Cc1ccc2n(c1=O)C[C@@H]1[C@@H](CO)[C@H](C(=O)NCC3CC3)[C@H]2N1Cc1ccncc1 (mixture of isomers)
  -3.6, i

Entries of single compounds, quoted from the list:
C[C@H](CO)N1C[C@H](C)[C@H](CN(C)Cc2ccncc2)OCCCC[C@H](C)Oc2ccc(NC(=O)Nc3ccc4c(c3)OCO4)cc2C1=O in the list: MLL AF4-AF9 inh = 5.7; FGF22 binding = i
C[C@@H]1CN([C@H](C)CO)C(=O)Cc2cc(NS(=O)(=O)c3cn(C)cn3)ccc2O[C@@H]1CN(C)S(=O)(=O)c1cn(C)cn1 in the list: MLL AF4-AF9 inh = 1.2; FGF22 binding = i

Remaining list, next part:
SMILES | MLL AF4-AF9 inh | FGF22 binding
C[C@@H]1CN([C@@H](C)CO)C(=O)c2cc(C#CCC3CCCC3)cnc2O[C@H]1CN(C)C(=O)CN(C)C | 11 | i
CCCC(=O)Nc1ccc2c(c1)C(=O)N(C)[C@@H]1CC[C@H](CC(=O)NCCc3ccncc3)O[C@H]1CO2 | 1.1 | i
C[C@@H]1CCCCO[C@H](CN(C)C(=O)Nc2cccc3ccccc23)[C@H](C)CN([C@@H](C)CO)C(=O)c2cc(NC(=O)Nc3ccc4c(c3)OCO4)ccc2O1 | -1.6 | i
CCCN1C[C@@H](C)[C@H](OC)CN(C)C(=O)c2cc(NS(=O)(=O)c3ccccc3)ccc2OC[C@H]1C | 1.9 | i
C/C=C/c1ccc([C@H]2[C@@H](CNC(=O)NC(C)C)N(C(=O)C3CC3)[C@H]2CO)cc1 | 1.6 | i
C[C@H]1CN([C@@H](C)CO)C(=O)Cc2cc(NC(=O)c3ccncc3)ccc2O[C@H]1CN(C)Cc1ccc2c(c1)OCO2 | -5.4 | i
COc1ccccc1NC(=O)N1C[C@@H](C)[C@H](OC)CN(C)C(=O)c2ccc(NC(=O)c3cnccn3)cc2OC[C@H]1C | -12 | i
C[C@@H]1CN([C@@H](C)CO)C(=O)c2ccccc2-c2ccccc2CO[C@H]1CN(C)S(=O)(=O)c1cccc(C#N)c1 | 9.8 | i
C[C@@H]1CN([C@@H](C)CO)C(=O)c2cccc(NC(=O)c3ccc(-c4nccs4)cc3)c2O[C@H]1CN(C)C(=O)Nc1cccc2ccccc12 | -6.9 | i
Cc1ccc(S(=O)(=O)Nc2cccc3c2O[C@H](CN(C)C(=O)Nc2ccc4c(c2)OCO4)[C@@H](C)CN([C@H](C)CO)C3=O)cc1 | 0.6 | i
COCC(=O)Nc1ccc2c(c1)[C@H]1C[C@@H](CC(=O)NCC(F)(F)F)O[C@@H](CO)[C@H]1O2 | -1.9 | i
CO[C@H]1CC[C@@H]2CCN(C)C(=O)[C@@H](C)[C@H](OC)CN(C)C(=O)c3cccc(C#N)c3OC[C@H]1O2 | -3.8 | i
CCCNC(=O)N(C)C[C@@H]1Oc2ncc(C#CC(C)C)cc2C(=O)N([C@H](C)CO)C[C@H]1C | -2.8 | i
CO[C@H]1CN(C)C(=O)c2ccc(NC(=O)Nc3ccc(C(F)(F)F)cc3)cc2OC[C@H](C)NC[C@H]1C | -2.1 | i
C[C@@H]1CN([C@@H](C)CO)C(=O)c2cccc(NC(=O)Nc3ccc(F)cc3)c2O[C@H]1CN(C)CC1CCCCC1 | 3.6 | i
C[C@@H]1CN([C@@H](C)CO)C(=O)c2cccc(NS(=O)(=O)c3cn(C)cn3)c2O[C@H]1CN(C)S(=O)(=O)c1ccc(Cl)cc1 | -1.8 | i
C[C@H]1CN([C@@H](C)CO)C(=O)c2c(c3ccccc3n2C)-c2ccccc2CO[C@H]1CN(C)C(=O)[C@H](Cc1ccccc1)N(C)C | 6.3 | i
C[C@H]1CN([C@@H](C)CO)C(=O)c2cccc(NS(=O)(=O)c3ccc(F)cc3)c2O[C@@H]1CN(C)S(=O)(=O)c1cn(C)cn1 | -0.2 | i
Cc1ccc(S(=O)(=O)NCC[C@@H]2CC[C@H](NC(=O)C3CCOCC3)[C@@H](CO)O2)cc1 | -2.1 | i
O=C(NCCc1ccccc1)[C@H]1[C@H](CO)[C@H]2Cn3c(cccc3=O)[C@H]2N1Cc1ccccc1 | 0.8 | i
Cc1noc(C)c1NC(=O)Nc1cccc2c1O[C@H](CN(C)C(=O)Nc1cccc3ccccc13)[C@@H](C)CN([C@@H](C)CO)C2=O | 2.7 | i
C[C@H](CO)N1C[C@H](C)[C@@H](CN(C)CC2CCCCC2)OCCCC[C@H](C)Oc2ccc(NC(=O)Nc3ccc(C(F)(F)F)cc3)cc2C1=O | 5.7 | i
Cc1ccc(-c2ccccc2[C@@H]2[C@@H](CO)N(C(=O)Cc3cccnc3)[C@H]2C#N)cc1 | -1.3 | i
C[C@H]1CCCCO[C@H](CN(C)S(=O)(=O)c2cccs2)[C@@H](C)CN([C@@H](C)CO)C(=O)c2cc(NS(=O)(=O)c3ccc(F)cc3)ccc2O1 | -1.9 | i
Cc1nn(C)cc1NC(=O)C[C@@H]1CC[C@H]2[C@H](COc3ccc(NC(=O)C4CCOCC4)cc3C(=O)N2C)O1 | -0.5 | i

Quoted from the listing.
C[C@@H]1CN([C@H](C)CO)C(=O)Cc2cc(NS(=O)(=O)c3cn(C)cn3)ccc2O[C@@H]1CN(C)S(=O)(=O)c1cn(C)cn1 @ MLL AF4-AF9 inh = 1.2
CCCNC(=O)N(C)C[C@@H]1Oc2ncc(C#CC(C)C)cc2C(=O)N([C@H](C)CO)C[C@H]1C @ MLL AF4-AF9 inh = -2.8
C[C@@H]1CCCCO[C@H](CN(C)C(=O)NC2CCCCC2)[C@@H](C)CN([C@@H](C)CO)C(=O)c2cc(NS(=O)(=O)c3ccccc3)ccc2O1 @ MLL AF4-AF9 inh = 1.9

(cont.)
SMILES | MLL AF4-AF9 inh | FGF22 binding
C[C@@H]1CN([C@H](C)CO)C(=O)c2cc(NS(=O)(=O)c3ccc(Cl)cc3)ccc2O[C@@H](C)CCCCO[C@@H]1CN(C)S(=O)(=O)c1ccccc1 | -2.8 | i
Cc1noc(C)c1NC(=O)Nc1ccc2c(c1)C(=O)N([C@H](C)CO)C[C@@H](C)[C@@H](CN(C)CC1CCCCC1)O2 | -11 | i
C[C@@H]1CN([C@@H](C)CO)C(=O)c2cc(NC(=O)C3CCCCC3)ccc2O[C@@H]1CN(C)C(=O)Nc1ccccc1 | -13 | i
O=C(C1CCCC1)N1CCCCN2[C@H](C1)[C@H](c1ccc(C#CC3CC3)cc1)[C@@H]2CO | 0.8 | i
CC(C)C#Cc1ccc2c(c1)O[C@H](CN(C)C)[C@@H](C)CN([C@@H](C)CO)S2(=O)=O | 2.6 | i
COCC(=O)N1[C@@H](C#N)[C@H](c2ccccc2-c2ccccc2)[C@@H]1CO | -2.0 | i
C[C@@H]1CN([C@H](C)CO)S(=O)(=O)c2ccc(-c3cccnc3)cc2O[C@@H]1CN(C)C(=O)CC1CC1 | -9.9 | i
CC=Cc1ccc2n(c1=O)C[C@H]1[C@H](CO)[C@@H](C(=O)NCCN3CCCC3)N(C(=O)NCCC)[C@@H]21 (mixture of isomers) | 0.2 | i
C[C@H]1CN([C@@H](C)CO)C(=O)Cc2cc(NS(=O)(=O)c3cccs3)ccc2O[C@H]1CN(C)S(=O)(=O)c1ccc(Cl)cc1 | -1.4 | i
CN1[C@@H]2c3ccc(C4=CCCC4)c(=O)n3C[C@H]1[C@H](CO)[C@H]2C(=O)NC1Cc2ccccc2C1 | 1.5 | i
Cc1ccc(S(=O)(=O)Nc2ccc3c(c2)CC(=O)N([C@@H](C)CO)C[C@H](C)[C@@H](CN(C)S(=O)(=O)c2cn(C)cn2)O3)cc1 | 0.3 | i
O=C(Nc1ccc2c(c1)[C@@H]1C[C@@H](CC(=O)N3CCc4ccccc4C3)O[C@@H](CO)[C@@H]1O2)NC1CCCC1 | 2.6 | i
C[C@H]1CN([C@@H](C)CO)C(=O)c2cc(C#CCc3ccccc3)cnc2O[C@@H]1CN(C)C(=O)C1CCCCC1 | -0.5 | i
C[C@@H]1CN([C@H](C)CO)C(=O)c2cccc(NS(C)(=O)=O)c2O[C@@H]1CN(C)CC1CC1 | -3.6 | i
N#C[C@@H]1[C@H](c2ccccc2C2=CCCC2)[C@H](CO)N1C(=O)Cc1ccncc1 | -0.9 | i
C[C@H]1CN([C@@H](C)CO)C(=O)c2cc(C#CC3(O)CCCC3)cnc2O[C@@H]1CN(C)C(=O)Cc1ccncc1 | 0.2 | i
CC(C)C#Cc1ccc([C@@H]2[C@H]3CN(C(=O)NC4CCCC4)CC(=O)N3[C@H]2CO)cc1 | -0.2 | i
O=C(C[C@@H]1C[C@H]2c3cc(NS(=O)(=O)c4ccc(F)cc4)ccc3O[C@H]2[C@@H](CO)O1)NCc1cc(F)ccc1F | 0.9 | i
Cc1noc(C)c1S(=O)(=O)Nc1cccc2c1O[C@H](CN(C)Cc1ccc(Oc3ccccc3)cc1)[C@H](C)CN([C@@H](C)CO)C2=O | 5.4 | i

An excerpt; the hit share may differ from the screen's.
